# VACV Venus inh – inhibitors of vaccinia virus (Venus reporter); Vaccinia virus Venus reporter expression, fluorescence; Potency, µM (highest dose often 36.5 µM), for inactives: at the highest dose activity change, negative = inhibition, usual class: inhibitors; 330,000 tested, 0.46% active; AID 720580; active means well fitted inhibition curve with a large enough effect; inconclusive means small, poorly fitted or top-dose-only effect; inactive means no such curve, though single readings can be large or run the other way; tested in A549 cells; also: nearly all actives have a fitted effect of over 30% in size; inactives centre near -10
# Vaccinia mCherry – vaccinia inhibition (mCherry reporter); Potency, µM (series often up to 36.5 µM), for the others: at the highest dose activity change, negative = inhibition, most hits filed as inhibitors; 310,000 tested, 0.63% active; Vaccinia virus mCherry reporter infection, fluorescence; about a quarter of the inactives have no number; AID 720579; active = well fitted inhibition curve with a large enough effect; inconclusive = small, poorly fitted or top-dose-only effect; inactive = no such curve, though single readings can be large or run the other way; tested in A549 cells; also: nearly all actives have a fitted effect of over 35% in size; inactives centre near -10
# Active calls of the source: *; i = inactive; ? = inconclusive; / = not tested or not shown; [ ] = remark or other dose. % is scaled to controls: 0 for no effect and ±100 for the full control effect; potency is read from the fitted curve at half-maximal effect.
mol,VACV Venus inh,Vaccinia mCherry
COc1ccc(CNC(=O)C(C)N(Cc2ccco2)C(=O)c2snc(C(N)=O)c2N)cc1 (centres undefined),-11%,i
CCC(=O)N1CCc2cc(Br)cc(S(=O)(=O)N3CCCC(C(=O)Nc4ccc(OC)c(Cl)c4)C3)c21 (centres undefined),-15%,-2%
COc1ccc(-c2nc3c(C)cc(Br)cn3c2Cc2cccc(Cl)c2)cc1OC,-1%,9%
COC(=O)CN1C(=O)[C@@H]2[C@H](C1=O)[C@@H]1CC(C(=O)OC)=C[C@@H](C(=O)OC)[C@@H]3C1=C(C(=O)[C@@]3(C)NC(=O)c1ccccc1)[C@@H]2C,-15%,i
CC(C)(C)NC(=O)C1Cc2ccccc2CN1 (centres undefined),-2%,-5%
CCCS(=O)(=O)NC(=O)C1(C)CCCN(C(=O)c2cccc(Cl)c2)C1 (centres undefined),-2%,i
COc1ccccc1-c1ccc(C(=O)N2CCC(N3CCc4ccccc4C3)CC2)c(N(C)CC2COCCO2)n1 (centres undefined),12%,-1%
CCOC(=O)c1c(S(=O)(=O)N2CCCC(C(=O)Nc3cc(C)ccn3)C2)c(C)n(C)c1C (centres undefined),-2%,-11%
Cc1noc(C)c1S(=O)(=O)N(C)C[C@H]1Oc2ccc(NS(=O)(=O)c3cn(C)cn3)cc2C(=O)N([C@H](C)CO)C[C@@H]1C,-10%,i
CC(CCc1ccccc1)NC(=O)/C=C/c1ccccc1 (centres undefined),-13%,/
Cc1ccc(Oc2c(C(F)(F)F)oc3c(CN4CCC(C)CC4)c(O)ccc3c2=O)cc1,-3%,-6%
Nc1ncnc2c1ncn2CCc1ccccc1,-14%,i
Cc1cccc(NC(=O)C2CCN(S(=O)(=O)c3ccc4c(c3)CCCC(=O)N4)CC2)c1,0%,-1%
COc1cc(N)c(Cl)cc1C(=O)OCC(=O)NCC1CCCCC1,-16%,-14%
Cc1ccc(CSc2oc(-c3cccs3)nc2S(=O)(=O)c2ccc(C)cc2)cc1,-1%,-9%
C=CCN1C(=O)c2ccc(C(=O)N3CCN(S(=O)(=O)c4ccccc4Br)CC3)cc2C1=O,9%,i
Cn1cnc(S(=O)(=O)Nc2ccccc2N2CCOCC2)c1,-3%,-16%
CCCC(C)C(=O)Nc1ccccc1C(=O)OCC (centres undefined),-22%,/
O=C(CSc1nnc(CNC(=O)c2c(F)cccc2Cl)o1)Nc1ccc2c(c1)OCCO2,-20%,-1%
CCOC(=O)c1cc2c(nc1N)CC(C)(C)OC2,-16%,/
Cc1cc(C)nc(SCC(=O)N/N=C/c2cccs2)n1,-5%,-13%
COc1cccc(-c2csc(NC(=O)Oc3ccccc3)n2)c1,?,?
Nc1cc(N)nc(SCC(=O)NCc2ccco2)n1,-15%,i
COc1ccc(S(=O)(=O)NC(C)C)cc1C(=O)NC1CCCCC1,-17%,-20%
CCN(CC)CCOC(=O)c1ccc(NC(=O)C(C)NC(=O)C23CC4CC(CC(C4)C2)C3)cc1 (centres undefined),-12%,-2%
CN(/N=C/c1ccncc1)C1=NS(=O)(=O)c2ccccc21,-4%,/
Cc1ccc(C(=O)CSc2ncc3c(n2)-c2ccccc2N(Cc2ccc(Cl)cc2)S3(=O)=O)cc1,-7%,-3%
CCOc1c2ccc(C(=O)NCc3ccc(C)cc3)cc2nn1CCOC,-22%,-6%
O=C(CN1CCN(C2CCCCC2)C(=O)C1=O)Nc1ccc(Cl)cc1,-15%,-15%
O=C(Cn1cnc2onc(-c3ccc(F)cc3)c2c1=O)Nc1cccc(C(F)(F)F)c1,-8%,-16%
Cc1ccc(F)cc1C(=O)N1CCCCC1c1cc(C(=O)Nc2cccc(C#N)c2)no1 (centres undefined),-11%,-7%
Cc1cccc(NC(=O)CN2C(=O)COc3ccc(S(=O)(=O)Nc4ccccc4)cc32)c1C,-13%,i
Fc1ccc(OCCOCCNCC2CCCO2)cc1 (centres undefined),3%,-9%
CCC(=O)Nc1ccc2c(c1)nc(CCN1CCN(c3ccccn3)CC1)n2C,-18%,i
CCCC/S(C)=N/S(=O)(=O)c1ccc(C)cc1 (centres undefined),-1%,-8%
O=S(=O)(NC1CC1)c1ccc(S(=O)(=O)N2CCCc3ccccc32)cc1,-20%,-30%
CCCCN(Cc1ccccc1)S(=O)(=O)c1ccc2c(c1)CCN2C(=O)C1CCC1,-11%,3%
C=CCn1c(SCCN2CCOCC2)nc2c1c(=O)[nH]c(=O)n2C,-14%,-20%
O=C(Nc1ccccc1F)N(Cc1ccc(F)cc1)Cc1nc2ccccc2c(=O)[nH]1,-2%,-10%
CC(Sc1nnc2ccccn12)C(=O)Nc1ccc2c(c1)OCCO2 (centres undefined),5%,-4%
Cc1cccc(-n2ncc(C#N)c2N)c1,-16%,/
O=C(CCc1cn(Cc2ccc(F)cc2)c2ccccc12)NCCc1ccc(Cl)cc1,-6%,-10%
Cc1c(CN(C)C)c2c(n1Cc1ccccc1)C(=O)c1ccccc1-2,-26%,/
Cc1cc(C(=O)OCCO)c(C#N)c(N)n1,-30%,/
COc1cccc(NC(=O)c2ccc(S(=O)(=O)N3CCCCC3)cc2)c1,?,-6%
CCCCn1c(O)c(/C=N/NC(=O)c2ccncc2)c(=O)[nH]c1=O,0%[7.34 µM],i[7.34 µM]
Cc1cccc(Nc2nnc(SCC(=O)NC3CCCc4ccccc43)s2)c1C (centres undefined),?,?
CCC1CCCCN1C(=O)COc1ccc2c3c(c(=O)oc2c1)CCC3 (centres undefined),-21%,?
COc1ccc(C(=O)C2CCCN(Cc3ccsc3)C2)cc1OC (centres undefined),?,?
O=C(Nc1cccc(S(=O)(=O)NCc2ccco2)c1)c1cc(-c2ccc(F)cc2)nc2ccccc12,-29%,-28%

# Next records follow:
mol,VACV Venus inh,Vaccinia mCherry
CCn1c(=N)n(CCOc2ccc(Br)cc2)c2ccccc21,-15%[7.34 µM],i[7.34 µM]
COc1ccc(Nc2nc(N)nc(CSC(=S)N3CCN(c4ccccc4)CC3)n2)cc1,?,-16%
COc1ccc(Cl)cc1N(C(=O)c1ccco1)C(C(=O)NC1CCCC1)c1cccnc1 (centres undefined),3%,11%
C=Cn1ccnc1P(=S)(c1cc(N(CC)CC)ns1)c1nccn1C=C,-10%,-7%
CC(=N/O)/C(=N\O)c1ccc(C)o1,-12%,-23%
CN(C)/C=C/C(=O)c1ccc(Br)cc1,-9%,i
CC(C(=O)NCC1CCCCC1)N1CCN(S(=O)(=O)c2cccs2)CC1 (centres undefined),-28%,-5%
COc1ccccc1CNC(=O)c1cnc2sc(N3CCCCC3)nn2c1=O,-12%,-13%
Cc1nn(Cc2nc(-c3cccs3)no2)c(C)c1Br,5%,i
COc1ccc(Cc2nnc(SCC(=O)Nc3ccc(C)cc3)n(N)c2=O)cc1,7%,-11%
Cc1c(NC(=O)C(C)OC(=O)c2ccccc2O)c(=O)n(-c2ccccc2)n1C (centres undefined),-7%,-18%
COc1cc(NS(=O)(=O)c2ccc(C)cc2)ccc1-n1cnnn1,-17%,?
Cc1cc(C)cc(NC(=O)C(=O)NC(C)c2ccccc2)c1 (centres undefined),-3%,-7%
Cc1ccccc1O,-14%,18%
CCOC(=O)c1ccc(NC(=O)C(=O)NCc2ccccn2)cc1,2%,-13%
O=C(Nc1cccc2ccccc12)N1Cc2ccccc2-n2nncc2C1,5%,i
Cc1cccc(NC(=O)CSc2n[nH]c(-c3ccncc3)n2)c1,-1%,-18%
O=C(Cc1ccccc1F)N1CCC(c2nc3c(nnn3Cc3cccc(Cl)c3)c(=O)[nH]2)CC1,-6%,-21%
CCN(CC)C(=O)c1cc(S(=O)(=O)N2CCCCC2)c[nH]1,-12%,-11%
CC(C)C(C(=O)OCC(=O)c1ccc2c(c1)NC(=O)CO2)N1C(=O)c2ccccc2C1=O (centres undefined),?,-15%
CN(C)CCCOC(=O)CCc1ccccc1,-6%,/
Cc1cccc(OCC(=O)Nc2ccc3c(c2)N(C)C(=O)c2ccccc2S3)c1,-14%[7.34 µM],-17%[7.34 µM]
O=C(CNC(=O)c1ccc(Oc2ccccc2)cc1)OC1CCCCC1=O (centres undefined),11%,2%
O=C(Nc1ccc(F)cc1)c1ccc(CN2CC(=O)N3CCCCC3C2=O)cc1 (centres undefined),-6%,-6%
CC(=O)Nc1n[nH]c(=S)s1,-11%,-2%
C=CCOc1ccc2ccccc2c1CNc1ncn[nH]1,-8%,-13%
Cc1ccc(S(=O)(=O)NC(=O)C2(C)CCN2C(=O)c2cccc(F)c2)cc1 (centres undefined),9%,16%
COc1ccc(CNC(=O)CCS(=O)(=O)c2cc(Br)cc3c2N(C(=O)C2CC2)CC3)cc1,-3%,-5%
COc1cccc(CNC(=O)c2cc(=O)[nH]c3ccc(S(=O)(=O)N4CCCCC4)cc23)c1,2%,12%
O=S1(=O)N(Cc2ccc(F)cc2)CCCN1Cc1ccccc1Cl,-9%,?
Cc1ccc(C(CC(=O)Nc2ccc(F)c(Cl)c2)N2Cc3ccccc3C2=O)cc1 (centres undefined),-4%,2%
CCCCOc1cccc(C(=O)NC(=S)Nc2cccc(C(F)(F)F)c2)c1,-12%,-18%
O=C(O)c1ccc(NC2=C/C(=N/S(=O)(=O)c3ccccc3)c3ccccc3C2=O)cc1,?,?
CCOC(=O)c1c(NC(NC(C)=O)C(Cl)(Cl)Cl)sc2c1CCCC2 (centres undefined),-22%,-16%
Cc1ccc(C(=O)N/N=C\c2ccc(-c3ccc([N+](=O)[O-])cc3)o2)cn1,-9%,i
Cc1c(Cl)cccc1NC(=S)NCc1ccc2c(c1)OCO2,-14%,i
Cc1onc(-c2ccccc2)c1C(=O)N/N=C/c1c[nH]c2ccccc12,-17%,-40%
COCc1nn2c(N)c(-c3ccccc3)cnc2c1-c1ccccc1,-20%,i
CC(=O)Nc1ccc(NC(=O)C(c2ccccc2)N2Cc3ccccc3C2=O)cc1 (centres undefined),-1%,-10%
CCOc1ccc(-c2nc3n(c(=O)c2C#N)CCCS3)cc1,-16%,/
CC(C)NC(NC(=O)/C=C/c1ccccc1)C(Cl)(Cl)Cl (centres undefined),-7%,-10%
CCOC(=O)N1CCN(c2ccc(C(C)=O)cc2F)CC1,-9%,-10%
CCOC(=O)c1csc(NC(=O)CSc2nnnn2-c2cccc(OC)c2)n1,-9%,/
CCCCCOP(=O)(c1ccccc1)c1ccccc1,-15%,-20%
C[C@@H]1[C@H](c2ccccc2)OCCS(=O)(=O)N1Cc1ccccc1Br,-28%,-10%
CN(C)C(=O)COC(=O)c1ccccc1OCC(=O)Nc1ccc(Br)cc1,-4%,-7%
CCOC(=O)C1CCN(CCC(=O)Nc2cc(C)ccc2C)CC1,-15%,-5%
CCNC(=O)NC(=O)C(C)OC(=O)c1oc2ccc(OCC)cc2c1C (centres undefined),-6%,-6%
CCOC(=O)N1CCC(NC(=O)C(C)n2c3ccccc3c3cnn(C)c(=O)c32)CC1 (centres undefined),-7%,/
COC(=O)C(CO)Nc1ncnc2onc(-c3ccc(F)cc3)c12 (centres undefined),-13%,-15%

# Some values from above.
# Result for Cc1ccccc1O in Vaccinia mCherry: 18%
# Result for Fc1ccc(OCCOCCNCC2CCCO2)cc1 (centres undefined) in VACV Venus inh: 3%
# Result for COc1cccc(CNC(=O)c2cc(=O)[nH]c3ccc(S(=O)(=O)N4CCCCC4)cc23)c1 in Vaccinia mCherry: 12%

# Shown as labelled records: part of the list above
Compound: CCCCCOP(=O)(c1ccccc1)c1ccccc1
  VACV Venus inh: -15%	Vaccinia mCherry: -20%

Compound: COc1ccc(CNC(=O)CCS(=O)(=O)c2cc(Br)cc3c2N(C(=O)C2CC2)CC3)cc1
  VACV Venus inh: -3%	Vaccinia mCherry: -5%

Compound: C[C@@H]1[C@H](c2ccccc2)OCCS(=O)(=O)N1Cc1ccccc1Br
  VACV Venus inh: -28%	Vaccinia mCherry: -10%

# New compounds follow.
mol,VACV Venus inh,Vaccinia mCherry
CCc1nc2ccc(C(=O)N(C)CCCN(C)C)cn2c1N(CC)CCOC,-15%,4%
Cc1ccc(CNC(=O)c2cc(-c3ccccc3)n(Cc3cc(C)no3)n2)cc1,-9%,i
CCCCN(C)C(=O)c1nc2ccccn2c1CN(C)Cc1csc(C)n1,-9%,-2%
CCCCNC(=O)c1cn(C)c2ccc(S(=O)(=O)N3CCCC3)cc2c1=O,-15%,i
CCCN(CC(=O)Nc1ccccc1C)C(=O)C1CC(=O)N(c2ccc(C)cc2)C1 (centres undefined),3%,0%
Cc1cc(C(F)(F)F)c(C#N)c(Sc2ccccc2)n1,-21%,/
CN(Cc1ccccc1)C(=O)C1CCN(S(=O)(=O)c2ccc(-n3cnnn3)cc2)CC1,-15%,-12%
COc1ccccc1/C(C)=N/NC(=S)NCc1ccccc1,-16%,-22%
CC(c1ccco1)N(C(=O)c1ccc(F)cc1)c1ccccn1 (centres undefined),-2%,i
COc1ccc(/C=N/NC2=NCCCCC2)c(OC)c1,-14%,-3%

# A draw from above in order of number of heavy atoms, largest number first:
mol,VACV Venus inh,Vaccinia mCherry
CN(Cc1ccccc1)C(=O)C1CCN(S(=O)(=O)c2ccc(-n3cnnn3)cc2)CC1,-15%,-12%
CCCN(CC(=O)Nc1ccccc1C)C(=O)C1CC(=O)N(c2ccc(C)cc2)C1 (centres undefined),3%,0%
CCCCNC(=O)c1cn(C)c2ccc(S(=O)(=O)N3CCCC3)cc2c1=O,-15%,i

# Bioassay records as filed in PubChem.
